# Bioassay records from PubChem.
# GLA inh pH 4.5 = inhibitors of human alpha-galactosidase A at pH 4.5 | activity change, negative = inhibition, % at 105 µM | 230,000 tested, under 10 active | AID 1467 | P06280 | purified enzyme, 4-MU-alpha-Gal fluorescence, pH 4.5; inconclusive = small, poorly fitted or top-dose-only inhibition, or a rising curve; inactive = flat fitted curve, though single readings scatter; no compound was filed as active;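 also: 0% = full activity with enzyme and -100% = basal without enzyme; dose as in the result columns while the protocol names 77 µM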
# Rango complex inh = prevents formation of the Rango-importin beta complex; Q14974; Rango CFP/YFP FRET sensor + importin beta, 45 min; Potency, µM (series often up to 92.2 µM), inactives show top-dose inhibition of complex formation; 340,000 compounds, 0.031% hits; AID 540263; active = rising FRET ratio curve, often small or poorly fitted; inconclusive = mostly compound fluorescence or quenching in the first reads; inactive = flat curves in all reads;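 also: potency is read from the fitted curve at half-maximal effect; 0% = DMSO wells and 100% = buffer wells lacking importin beta; nearly all actives have a fitted effect of over 15% in size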
# Target sequence (Q14974 whole entry, looked up): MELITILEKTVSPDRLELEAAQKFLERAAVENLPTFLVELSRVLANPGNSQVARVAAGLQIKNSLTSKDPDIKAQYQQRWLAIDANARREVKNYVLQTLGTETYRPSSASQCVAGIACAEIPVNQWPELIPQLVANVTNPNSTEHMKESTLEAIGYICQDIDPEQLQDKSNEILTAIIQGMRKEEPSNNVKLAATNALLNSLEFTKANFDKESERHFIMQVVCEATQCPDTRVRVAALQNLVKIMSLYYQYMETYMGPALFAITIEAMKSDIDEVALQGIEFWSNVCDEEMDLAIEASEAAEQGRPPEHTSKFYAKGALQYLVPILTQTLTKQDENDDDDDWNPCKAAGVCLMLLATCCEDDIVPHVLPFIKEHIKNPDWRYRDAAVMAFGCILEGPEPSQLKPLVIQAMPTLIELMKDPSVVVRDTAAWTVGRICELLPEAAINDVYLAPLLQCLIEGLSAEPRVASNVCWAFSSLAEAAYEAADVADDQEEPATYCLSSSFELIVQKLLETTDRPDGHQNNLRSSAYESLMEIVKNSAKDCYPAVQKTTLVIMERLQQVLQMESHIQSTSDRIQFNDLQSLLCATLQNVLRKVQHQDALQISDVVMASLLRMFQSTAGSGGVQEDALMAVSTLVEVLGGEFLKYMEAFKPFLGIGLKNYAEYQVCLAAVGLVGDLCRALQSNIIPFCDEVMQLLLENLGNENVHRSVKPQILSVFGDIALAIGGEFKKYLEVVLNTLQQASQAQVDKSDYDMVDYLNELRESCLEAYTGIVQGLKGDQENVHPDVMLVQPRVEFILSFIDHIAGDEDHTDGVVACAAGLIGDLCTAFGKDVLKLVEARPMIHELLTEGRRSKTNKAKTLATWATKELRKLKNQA
#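 FRET biosensor Rango (snurportin 1 IBB between N-terminal EYFP and C-terminal Cerulean), 50 nM in PBS/1 mM DTT/0.02% Tween-20/0.1% BSA, preincubated 5 min RT with compound; 0.125 microM importin beta added, 45 min RT, CFP/YFP FRET ratio read.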
# miR-21 FLuc = raises the signal of a miR-21 reporter. HeLa miR-21 FLuc reporter, luciferase, 48 h. Potency, µM (doses to about 38.3 µM), for inactives: at the highest dose reporter change, positive = more light. 340,000 tested, under 10 active. AID 2288; active = well fitted rising curve with a large enough effect; inconclusive = small, poorly fitted or top-dose-only effect; inactive = no such curve, though single readings can be large or run the other way;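 also: % of control where 0% means no effect; miR-21 action dims this reporter so a rising signal means less miR-21 action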
#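 HeLa cells stably expressing CMV-driven firefly luciferase with a downstream miR-21 binding sequence, endogenously expressing miR-21, were treated with titrations (up to about 40uM final) for 48 hours at 37 degree Celsius. Luciferase luminescence was read after lysis.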
# Rango dissoc inh = inhibitors of RanGTP-induced Rango-importin beta complex dissociation; AID 540253; O95149+P62826; Biochemical FRET Rango-importin beta, RanGTP-induced dissociation; Potency, µM (titrated, usually from 46.1 µM), without a hit: at the highest dose activity change, negative = inhibition; 340,000 compounds, 0.071% hits; active means falling FRET ratio curve, often poorly fitted, with flat reads before Ran was added; inconclusive means other falling curves, or compound fluorescence or quenching; inactive means flat or rising ratio curve;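 also: potency is read from the fitted curve at half-maximal effect; % of control where 0% means no effect; nearly all actives have a fitted effect of over 45% in size; -100% = wells without RanGTP and RCC1; the record marks most hits as doubtful in a second field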
#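 Rango FRET biosensor (snurportin-1 IBB flanked by N-terminal EYFP and C-terminal CFP10) at 0.1 uM, with 0.25 uM importin beta in PBS, 1mM DTT, 0.02% Tween-20, 0.1% BSA. 0.6 uM Ran, 2mM GTP and 0.2 uM RCC1 were then added for 45 min at room temperature. Inhibition read as loss of FRET rise.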
# * hit, by the source's call; ? = inconclusive; . = not tested or not shown; [ ] = remark or other dose. Some of the compounds tested. The share of hits here may be higher or lower than overall.
Structure	GLA inh pH 4.5	Rango complex inh	miR-21 FLuc	Rango dissoc inh
NCCCNC(=O)c1cc2ccccc2[nH]1	1	7.9%	6%	9%
CC(=O)c1c(N2CCN(Cc3ccc4c(c3)OCO4)CC2)nc(=S)n(-c2ccccc2)c1C	-2	-1.3%	-3%	2%
Nc1c(N(Cc2ccccc2)C(=O)COc2ccc(F)cc2)c(=O)[nH]c(=O)n1Cc1ccccc1	.	-3.1%	-1%	-13%
CC(NC(=O)/C=C/c1ccc(Br)cc1)c1ccccc1 (configuration not stated)	1	3.0%	-13%	-7%
COc1ccc(O)c(CN2CC3CCC(CC3)C2)c1	.	-2.5%	.	-7%
CS(=O)(=O)c1cccc(NC(=O)C2CCCN2S(=O)(=O)c2ccc(F)cc2)c1 (configuration not stated)	.	-3.2%	5%	-2%
O=C(O)c1ccc(/C=C2\SC(=S)N(Nc3ccccc3)C2=O)cc1	1	3.7%	-8%	-4%
O=C1CCCC(O)=C1C=Nc1ccc2c(c1)oc1ccccc12	-22	?	-21%	-12%
CCCCCc1c2c(cc(O)c1C(=O)O)OC(=O)c1cc(C(=O)CCCC)c(OC)cc1O2	-8	0.6%	.	3%
CCCN(CC(=O)Nc1ccc(F)c(F)c1F)C(=O)c1cc([N+](=O)[O-])ccc1N1CCOCC1	.	-0.3%	.	9%
O=C(COC(=O)c1cc([N+](=O)[O-])ccc1N1CCOCC1)Nc1ncc(Cl)cc1Cl	.	2.0%	-9%	13%
O=[N+]([O-])c1cc(-c2csc(NCCc3nc4cc(C(F)(F)F)ccc4n3CCCO)n2)ccc1Cl	.	-0.5%	.	0%
N#Cc1cc(N2CCOCC2)nc2ccccc12	-2	?	-33%	?
Clc1ccc(C2=Nn3c(nnc3-c3cc(-c4ccccc4)n[nH]3)SC2)cc1	-4	3.4%	-6%	2%
COc1cccc(Nc2cc(C)nc3nc(C)nn23)c1	-1	0.5%	-4%	1%
Cc1ccc2c(c1)c1c(n2CC(O)CN2CCCCC2C)CCCC1 (configuration not stated)	-6	1.1%	-18%	5%
COc1ccc(/C=N/NC(=O)c2cccc([N+](=O)[O-])c2)cc1OS(=O)(=O)c1ccc(C)cc1	-5	0.1%	-8%	-1%
O=C(N/N=C\c1ccc(COc2ccc([N+](=O)[O-])cc2)o1)c1cccc(Cl)c1	-4	0.2%	-9%	-6%
Cc1ccc(C#N)c(SCc2ccccc2F)n1	1	1.0%	-28%	-8%
Cc1ccc(S(=O)(=O)Oc2ccc3c(c2)O/C(=C\c2cccnc2)C3=O)cc1	-5	-3.1%	-2%	0%
CCOc1ccc(-c2cc(CCCC(=O)NCc3cccnc3)no2)cc1	-12	0.8%	6%	-4%
CC(=O)Nc1cccc(NC(=O)CSc2nnc(NC(=O)c3ccco3)s2)c1	.	0.3%	-9%	-2%
O=C(CNc1ccccc1)N/N=C/c1cn(-c2ccccc2)nc1-c1ccccc1	0	0.5%	-7%	-5%
Cc1c(C(=O)NN2CCOCC2)oc2c1ccc1ccccc12	2	1.2%	-6%	3%
O=C(Nc1cccnc1Cl)C1CCCN(c2ncnc3c2nc2n3CCCCC2)C1 (configuration not stated)	.	1.3%	3%	-22%
NS(=O)(=O)c1ccc(CNC(=O)CCS(=O)(=O)Cc2ccccc2)cc1	.	-1.2%	3%	-2%
COc1ccc(Cc2nnc(NC(=O)Nc3ccc(F)cc3)s2)cc1	.	0.4%	-6%	-12%
CCNC(=S)NC1CC2CCCC(C1)N2Cc1ccc(C)cc1 (configuration not stated)	.	-0.5%	5%	9%
CCCCn1c(N)c(N(CC(C)C)C(=O)C2CCN(c3ncnc4sc(C)c(C)c34)CC2)c(=O)[nH]c1=O	.	-2.7%	.	-2%
CN(C)/C(=N\S(=O)(=O)c1ccccc1)c1ccc(F)cc1	.	-2.3%	-3%	13%
CCOc1cc(/C=C2/NC(=O)N(CC(=O)Nc3cccc(C)c3)C2=O)ccc1O	2	-0.1%	-29%	0%
CCC(C)Sc1cccc(-c2nc3cc(C)ccn3c2NCc2ccccc2)c1 (configuration not stated)	.	?	.	-11%
OCCN(CC#CC(O)(c1ccccc1)c1cccc(F)c1)CCO (configuration not stated)	-20	?	1%	0%
C=CCNC(=O)C1CC1(c1ccccc1)c1ccccc1 (configuration not stated)	20	2.1%	-1%	0%
CC(C)n1c(SCC(=O)Nc2ccc(N3CCOCC3)cc2)nnc1-c1ccco1	.	-0.2%	9%	-7%
O=C(O)CN=C1CC(c2ccccc2)CC(=O)/C1=C(/O)CCCN1C(=O)c2ccccc2C1=O (configuration not stated)	-8	3.5%	4%	19%
CC(C)CCNC(=O)Cc1csc(-c2ccccc2)n1	8	-5.3%	-18%	0%
O=C(Nc1ccc(F)cc1)c1ccc(-n2cncn2)c([N+](=O)[O-])c1	-5	0.7%	2%	-9%
O=C(NCc1ccco1)c1cc2sccc2n1Cc1ccccc1	-11	-0.5%	-17%	-13%
CCOC(=O)c1nnc(-c2ccccc2)nc1N1CCSCC1	-3	-0.4%	-9%	-13%
Cc1ccc(CCNC(=O)C2CCCN(S(=O)(=O)c3cccs3)C2)cc1 (configuration not stated)	5	-3.5%	1%	-1%
COc1ccc(Nc2cc(C(=O)NCc3ccco3)c3ccccc3n2)cc1	5	.	-1%	.
O=C(NCc1ccccc1)c1ccc(OCC2CCCO2)cc1 (configuration not stated)	-1	0.0%	-24%	8%
Cc1ccc(NC(=O)c2ccc(S(=O)(=O)NCC3CCCO3)cc2)cc1 (configuration not stated)	-4	-0.8%	-15%	16%
COc1cc(CNCCc2ccccc2)ccc1OCc1ccc(Cl)nc1	-7	-3.5%	-17%	3%
COc1cccc(CN(C)C(=O)CC2C(=O)NCCN2C2Cc3ccccc3C2)c1 (configuration not stated)	.	4.2%	0%	-3%
C[C@H](CO)N1C[C@H](C)[C@@H](CN(C)Cc2ccc3c(c2)OCO3)Oc2c(NC(=O)C3CC3)cccc2C1=O	.	-3.7%	.	16%
CCN(CC(=O)NCCC1=CCCCC1)S(=O)(=O)c1ccccc1	2	-6.3%	-1%	19%
Cc1ccc(CN2CCN(Cc3nc4c(s3)CCCC4)CC2CCO)cc1 (configuration not stated)	10	-2.7%	?	-3%
C=CCNC(=O)COC(=O)c1ccc(C)c(NC(=O)c2ccco2)c1	1	0.0%	1%	-5%
COc1ccc(C(=O)N/N=C(\C)c2ccccn2)cc1OC	.	-1.2%	5%	0%
C/C(=N\NC(=O)C1CC1)c1ccc(OC(F)F)cc1OC(F)F	.	3.1%	-1%	8%
CCOc1cccc2cc(C(=O)Nc3cc(C)on3)c(=O)oc12	-3	2.7%	-7%	12%
CCCc1cc(-c2n[nH]c(=S)n2CC)c2ccccc2n1	3	-2.6%	-3%	-16%
CN(C)S(=O)(=O)Oc1ccsc1C(=O)Nc1cccc(Cl)c1Cl	-11	-3.8%	-9%	1%
COc1ccccc1NC(=O)/C(C#N)=C/c1cccn1C	.	?	.	-20%
O=C(NNc1cc(N2CCCC2)nc(N2CCCC2)n1)c1ccc([N+](=O)[O-])cc1	-13	?	-5%	-6%
O=S(=O)(CS(=O)(=O)c1ccc(Cl)cc1)c1ccc(Cl)cc1	-3	0.0%	-6%	4%
COc1ccc(-c2nnc3ccc(SCC(=O)NCc4ccco4)nn23)cc1OC	-10	-1.4%	-6%	1%
Cc1ccc(-c2nc(C=Nc3ccc(O)cc3)c(O)o2)cc1	-18[21.1 µM]	?	3%	?

# (cont.)
Structure	GLA inh pH 4.5	Rango complex inh	miR-21 FLuc	Rango dissoc inh
O=C(NCCCN1CCN(CCCNC(=O)c2ccc(F)cc2)CC1)c1ccc(F)cc1	4	0.5%	1%	19%
O=C(CN1CCc2ccccc2C1)Nc1ccccc1C(=O)NC1CC1	.	1.6%	.	-9%
O=C(O)c1ccc(N=Nc2c(-c3ccccc3)[nH]oc2=O)cc1	.	1.6%	-5%	3%
COc1nc(OCCNC(C)=O)nc(N(C)C)n1	5	2.3%	-6%	8%
O=S(=O)(CC=CCS(=O)(=O)c1ccccc1)c1ccccc1	.	4.0%	.	29%
Cc1cc2c3nonc3ccc2n1C	2	?	-6%	?
COc1ccc(CCNC2CC(=O)N(N(C)C)C2=O)cc1OC (configuration not stated)	7	0.3%	0%	-18%
Cc1ccccc1NC(=S)N(Cc1cccnc1)Cc1ccccc1Cl	1	-1.5%	2%	0%
O=S(=O)(c1ccccc1)N1CCN(C(c2ccccc2)c2ccc(OC(F)(F)F)cc2)CC1 (configuration not stated)	.	-1.1%	-2%	-1%
O=C(NCCn1cc(SCc2ccc(F)cc2)c2ccccc21)c1ccccc1F	-23	1.8%	3%	10%
CCc1nc2ccccc2c(C(=O)OCC(=O)C(C)(C)C)c1C	0	0.0%	12%	?
Cc1c(C)n(Cc2ccccc2)c2ncnc(NCCN(C)C)c12	.	1.0%	-2%	21%
COc1ccc(OC)c(C2C(C(=O)c3ccc(C)o3)=C(O)C(=O)N2c2cc(C)on2)c1 (configuration not stated)	.	-0.1%	0%	-23%
Cc1cc(C)c2[nH]c(=O)c(CN(CC3CCCO3)C(=O)C3CCCO3)cc2c1 (configuration not stated)	-3	-0.5%	-3%	-16%
COc1ccc(NC(=O)N(C)C[C@H]2Oc3ccc(NS(=O)(=O)c4ccc(F)cc4)cc3C(=O)N([C@H](C)CO)C[C@@H]2C)cc1	.	2.3%	.	-10%
N#Cc1ccc(C(=O)N2CCN(C(=O)C3CCCO3)CC2)cc1 (configuration not stated)	.	-0.4%	.	-22%
Cc1ccsc1CN(C)CC(=O)NCC(=O)Nc1ccc(F)c(F)c1F	.	7.3%	.	-8%
CCn1c(=NC(=O)c2cccc(N3C(=O)CCC3=O)c2)sc2c(C)ccc(OC)c21	-3	3.4%	0%	?
N#CCSc1nnc(Cc2cccc3ccccc23)n1C1CCCCC1	-3	-0.3%	4%	-13%
COc1ccc(CCNC(=O)CN2C(=O)NC(Cc3c[nH]c4ccccc34)C2=O)cc1 (configuration not stated)	.	-0.1%	1%	-21%
Cc1nn(-c2ccccc2)c(C)c1/C=N/NC(=O)c1cc(C23CC4CC(CC(C4)C2)C3)[nH]n1	-8	5.4%	-10%	31%
CN(C(=O)COC(=O)CSc1ccc([N+](=O)[O-])cc1)c1ccccc1	.	3.7%	.	-3%
CCc1nc(CNC(=O)C2CCC(=O)N(CCc3cccc(F)c3)C2)no1 (configuration not stated)	.	-4.1%	2%	13%
Cc1ccc(C)c(OCCCCCn2ccnc2)c1	-6	-0.6%	3%	23%
O=C(O)C1C2OC(C(Br)C2Br)C1C(=O)O (configuration not stated)	.	-2.1%	.	7%

# A different layout for two compounds above.
> O=C(NCCCN1CCN(CCCNC(=O)c2ccc(F)cc2)CC1)c1ccc(F)cc1
  GLA inh pH 4.5 = 4; Rango complex inh = 0.5%; miR-21 FLuc = 1%; Rango dissoc inh = 19%

> O=C(CN1CCc2ccccc2C1)Nc1ccccc1C(=O)NC1CC1
  GLA inh pH 4.5 = .; Rango complex inh = 1.6%; miR-21 FLuc = .; Rango dissoc inh = -9%

# Two consecutive records out of the list so far, for reference:
Structure	GLA inh pH 4.5	Rango complex inh	miR-21 FLuc	Rango dissoc inh
O=C(NCCCN1CCN(CCCNC(=O)c2ccc(F)cc2)CC1)c1ccc(F)cc1	4	0.5%	1%	19%
O=C(CN1CCc2ccccc2C1)Nc1ccccc1C(=O)NC1CC1	.	1.6%	.	-9%
